# Env fusion inh – inhibitors of HIV-1 Env-driven cell-cell fusion, primary screen, HeLa-JRFL effector, CEM21 target cells, luciferase; hit rate 1.1% among 360,000; inhibition, % at 12.3 µM;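 active means mean replicate inhibition score of at least 50 and every replicate individually at or above 50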;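 further: 0% = plate neutral controls and 100% = maraviroc near 300 nM; one replicate is shown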
# UUG fidelity – modulators of yeast start codon fidelity, primary screen, whole organism, S. cerevisiae, single point, plate reader. hit rate 0.13% among 350,000. activity score, % at 18.7 µM. S. cerevisiae UUG-firefly luciferase reporter, luminescence/redox ratio;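 active means replicate mean at a twofold rise or more, about +100% in these data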;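 further: firefly luciferase made from a UUG start codon reports start codon fidelity; reporter light over untreated wells divided by growth signal over untreated wells; some hits fall short of that in this replicate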
# * = called active by the depositor; & = joins results of further samples; [ ] = dose if it differs, or a comment. These rows are one share of the data; rates above refer to the full screens.
Env fusion inh | UUG fidelity | mol
-14.3[16.7 µM] | 25.3 | C[C@H](O)C#Cc1cnc2c(c1)C(=O)N([C@@H](C)CO)C[C@H](C)[C@H](CN(C)CC1CCCCC1)O2
-90.8[16.7 µM] | -5.7 | C[C@@H]1CN([C@H](C)CO)C(=O)c2cc(-c3ccc(C#N)cc3)cnc2O[C@H]1CN(C)Cc1ccncc1
-32.7[16.7 µM] | 10.4 | C[C@@H]1CN([C@H](C)CO)C(=O)c2cccc(NS(C)(=O)=O)c2O[C@@H]1CN(C)CC1CC1
2.2[16.7 µM] | 6.3 | C[C@H](CO)N1C[C@H](C)[C@H](CN(C)C(=O)C2CC2)Oc2cc(C#C[C@@H](C)O)ccc2S1(=O)=O
10.2[16.7 µM] | -8.0 | COC(=O)C[C@@H]1CC[C@@H](NS(=O)(=O)c2ccc(OC)cc2)[C@H](CO)O1
-10.1[16.7 µM] | 13.5 | C[C@H](CO)N1C[C@H](C)[C@@H](CN(C)C(=O)Nc2ccc(F)cc2)Oc2c(NS(=O)(=O)c3ccc(Cl)cc3)cccc2C1=O
-1.4[16.7 µM] | 2.1 | CN1C(=O)c2cc(NC(=O)c3cccs3)ccc2OC[C@H]2O[C@@H](CC(=O)N3CCOCC3)CC[C@H]21
-13.7[16.7 µM] | 4.8 | C[C@H](CO)N1C[C@H](C)[C@@H](CN(C)C(=O)NC2CCCCC2)Oc2c(NC(=O)Nc3ccc(F)cc3)cccc2C1=O
-4.0[16.7 µM] | -6.5 | CNC[C@@H]1Oc2ccc(NS(=O)(=O)c3ccc(F)cc3)cc2C(=O)N([C@H](C)CO)C[C@@H]1C
-2.9[16.7 µM] | -4.1 | C[C@@H]1CN([C@H](C)CO)C(=O)Cc2cc(NS(=O)(=O)c3ccc(F)cc3)ccc2O[C@H]1CN(C)C
-6.8[16.7 µM] | 13.4 | COc1ccc(NC(=O)N(C)C[C@@H]2Oc3ncc(-c4ccc(C#N)cc4)cc3C(=O)N([C@H](C)CO)C[C@H]2C)cc1
0.3[16.7 µM] | 10.8 | C[C@H](CO)N1C[C@H](C)[C@@H](CN(C)CC2CC2)OCCCC[C@H](C)Oc2ccc(NC(=O)CCCCCC(=O)Nc3ccccc3N)cc2C1=O
-18.3[16.7 µM] | -14.8 | CCCNC(=O)N(C)C[C@H]1Oc2ncc(-c3ccncc3)cc2C(=O)N([C@@H](C)CO)C[C@@H]1C
15.5[16.7 µM] | -1.1 | CCCNC(=O)N[C@H]1C=C[C@H](CC(=O)NC2CCCCC2)O[C@H]1CO
10.4[16.7 µM] | 9.5 | Cc1ccc(-c2cnc3c(c2)C(=O)N([C@@H](C)CO)C[C@H](C)[C@@H](CN(C)C(=O)Cc2ccccc2)O3)cc1
-2.8[16.7 µM] | 7.0 | C[C@@H]1CN([C@@H](C)CO)C(=O)Cc2cc(NC(=O)Cn3cnnn3)ccc2O[C@H]1CN(C)S(=O)(=O)c1ccc(Cl)cc1
-1.1[16.7 µM] | -7.4 | C[C@H]1CN([C@@H](C)CO)C(=O)Cc2cc(NC(=O)Cc3cn(C)c4ccccc34)ccc2O[C@H]1CN(C)C(=O)Nc1ccccc1
-74.0[16.7 µM] | 17.7 | C[C@@H]1CCCCO[C@H](CN(C)C(=O)NC2CCCCC2)[C@H](C)CN([C@@H](C)CO)C(=O)c2cc(NS(=O)(=O)c3cccs3)ccc2O1
6.5[16.7 µM] | -1.2 | O=C(Nc1ccc(Cl)cc1)N[C@H]1CC[C@H](CCn2cc(Cc3ccccc3)nn2)O[C@H]1CO
-5.4[16.7 µM] | 10.0 | COCC#Cc1ccc2c(c1)O[C@@H](CN(C)Cc1cncnc1)[C@H](C)CN([C@@H](C)CO)S2(=O)=O
18.8[16.7 µM] | -15.1 | CCCNC(=O)Nc1ccc2c(c1)C(=O)N(C)[C@@H]1CC[C@@H](CC(=O)O)O[C@H]1CO2
9.4[16.7 µM] | -11.5 | C[C@H](CO)N1C[C@H](C)[C@H](CN(C)S(C)(=O)=O)Oc2c(NC(=O)C3CC3)cccc2C1=O
13.2[16.7 µM] | -15.4 | CC(=O)N[C@@H]1C=C[C@H](CC(=O)NCC2CCCCC2)O[C@H]1CO
-13.1[16.7 µM] | -11.1 | CN1CCN(C(=O)C[C@H]2CC[C@@H]3[C@H](COC[C@@H](O)CN3CC3CCOCC3)O2)CC1
-19.2[16.7 µM] | -0.2 | Cc1noc(C)c1NC(=O)Nc1cccc2c1O[C@@H](CN(C)Cc1ccccc1)[C@H](C)CN([C@@H](C)CO)C2=O
-0.2[16.7 µM] | 4.7 | C[C@H](CO)N1C[C@H](C)[C@H](CN(C)Cc2ccc(O)cc2)OCc2cn(nn2)CCCC1=O
-2.0[16.7 µM] | 5.3 | C[C@@H]1CN([C@@H](C)CO)C(=O)c2cc(C#CCN(C)C)cnc2O[C@H]1CN(C)C(=O)c1cccc(F)c1
-17.9[16.7 µM] | 14.4 | C[C@H]1CN([C@@H](C)CO)C(=O)c2cc(C#CC(C)(C)O)cnc2O[C@H]1CN(C)Cc1cncnc1
-11.9[16.7 µM] | -1.1 | CC(C)C#Cc1ccc2c(c1)O[C@@H](CN(C)C(=O)Cc1ccccn1)[C@H](C)CN([C@H](C)CO)S2(=O)=O
11.7[16.7 µM] | 0.6 | CCC(=O)N(C)C[C@H]1Oc2cc(-c3cccc(OC)c3)ccc2S(=O)(=O)N([C@H](C)CO)C[C@H]1C

# In the list so far, 5 have fluorine:
Env fusion inh | UUG fidelity | mol
-10.1[16.7 µM] | 13.5 | C[C@H](CO)N1C[C@H](C)[C@@H](CN(C)C(=O)Nc2ccc(F)cc2)Oc2c(NS(=O)(=O)c3ccc(Cl)cc3)cccc2C1=O
-13.7[16.7 µM] | 4.8 | C[C@H](CO)N1C[C@H](C)[C@@H](CN(C)C(=O)NC2CCCCC2)Oc2c(NC(=O)Nc3ccc(F)cc3)cccc2C1=O
-4.0[16.7 µM] | -6.5 | CNC[C@@H]1Oc2ccc(NS(=O)(=O)c3ccc(F)cc3)cc2C(=O)N([C@H](C)CO)C[C@@H]1C
-2.9[16.7 µM] | -4.1 | C[C@@H]1CN([C@H](C)CO)C(=O)Cc2cc(NS(=O)(=O)c3ccc(F)cc3)ccc2O[C@H]1CN(C)C
-2.0[16.7 µM] | 5.3 | C[C@@H]1CN([C@@H](C)CO)C(=O)c2cc(C#CCN(C)C)cnc2O[C@H]1CN(C)C(=O)c1cccc(F)c1

# Additional records.
Env fusion inh | UUG fidelity | mol
-4.7[16.7 µM] | -6.7 | O=C(C[C@H]1C[C@H]2c3cc(NC(=O)NC4CCCCC4)ccc3O[C@H]2[C@@H](CO)O1)NCc1ccncc1
-14.2[16.7 µM] | 15.5 | C[C@@H]1CN([C@H](C)CO)C(=O)c2cc(NC(=O)NC3CCCCC3)ccc2O[C@@H](C)CCCCO[C@H]1CN(C)Cc1ccccc1
-9.7[16.7 µM] | 15.8 | C[C@H]1CCCCO[C@@H](CN(C)Cc2ccccc2)[C@@H](C)CN([C@@H](C)CO)C(=O)c2cc(NC(=O)C3CCCCC3)ccc2O1
-78.3[16.7 µM] | -11.3 | Cc1noc(C)c1S(=O)(=O)Nc1ccc2c(c1)C(=O)N([C@@H](C)CO)C[C@H](C)[C@@H](CN(C)Cc1ccc(C(=O)O)cc1)OCCCC[C@H](C)O2
-1.6[16.7 µM] | 4.6 | COC(=O)C[C@H]1CC[C@H]2[C@@H](COC[C@H](O)CN2S(=O)(=O)c2ccc(F)cc2)O1
0.6[16.7 µM] | 5.7 | C[C@@H]1CN([C@@H](C)CO)S(=O)(=O)c2ccc(-c3ccc(F)cc3)cc2O[C@H]1CN(C)C(=O)C1CC1
-16.2[16.7 µM] | -11.1 | C[C@@H]1CCCCO[C@@H](CN(C)S(C)(=O)=O)[C@H](C)CN([C@@H](C)CO)C(=O)c2cc(NC(=O)CCC(F)(F)F)ccc2O1
-2.2[16.7 µM] | -5.0 | CC(C)c1cn(CC[C@H]2CC[C@H](NS(=O)(=O)c3ccc(F)cc3)[C@@H](CO)O2)nn1
5.5[16.7 µM] | -2.9 | COc1ccc(S(=O)(=O)Nc2ccc3c(c2)C(=O)N([C@H](C)CO)C[C@H](C)[C@H](CN(C)C)OCCCC[C@@H](C)O3)cc1
24.6[16.7 µM] | 50.9 | C[C@@H]1CN([C@@H](C)CO)C(=O)Cc2cc(NC(=O)Cc3ccccc3)ccc2O[C@H]1CN(C)C(=O)Nc1ccc(C(F)(F)F)cc1
-27.2[16.7 µM] | -4.9 | COc1ccc(CN(C)C[C@H]2OCCCC[C@@H](C)Oc3ccc(NS(C)(=O)=O)cc3C(=O)N([C@H](C)CO)C[C@H]2C)cc1
27.7[16.7 µM] | 0.0 | C[C@H]1CN([C@@H](C)CO)C(=O)c2cc(C#CC3(O)CCCC3)cnc2O[C@@H]1CN(C)C(=O)Cc1cccnc1
8.8[16.7 µM] | -9.2 | C[C@@H]1CCCCO[C@H](CN(C)S(=O)(=O)c2cccs2)[C@@H](C)CN([C@H](C)CO)C(=O)c2cc(NS(C)(=O)=O)ccc2O1
-11.6[16.7 µM] | -7.5 | O=C(C[C@H]1C[C@@H]2c3cc(NC(=O)C4CCOCC4)ccc3O[C@@H]2[C@H](CO)O1)NCc1ccncc1
6.1[16.7 µM] | -5.8 | Cc1noc(C)c1NC(=O)Nc1ccc2c(c1)C(=O)N([C@@H](C)CO)C[C@@H](C)[C@H](CN(C)Cc1ccncc1)OCCCC[C@H](C)O2
-14.3[16.7 µM] | 13.0 | C[C@@H]1CN([C@H](C)CO)C(=O)c2cc(-c3ccc(F)cc3)cnc2O[C@H]1CN(C)C(=O)Nc1ccccc1F
-9.6[16.7 µM] | -3.1 | C[C@H](CO)N1C[C@H](C)[C@@H](CN(C)C(=O)C2CCC2)Oc2ncc(C#CC(C)(C)O)cc2C1=O
-21.0[16.7 µM] | -3.3 | CCCC(=O)Nc1ccc2c(c1)C(=O)N(C)[C@@H]1CC[C@H](CC(=O)NCCN3CCCCC3)O[C@@H]1CO2
-10.8[16.7 µM] | 9.0 | COc1ccccc1NC(=O)N[C@H]1CC[C@@H](CCNC(=O)c2ccc3c(c2)OCO3)O[C@@H]1CO
-3.1[16.7 µM] | -19.5 | Cc1ccc(S(=O)(=O)N(C)C[C@H]2Oc3ccc(NC(=O)Nc4ccc(C(F)(F)F)cc4)cc3C(=O)N([C@H](C)CO)C[C@@H]2C)cc1
-6.9&-5.5[16.7 µM] | -15.2&-23.9 | CNC(=O)C[C@H]1CC[C@@H]2[C@@H](COc3ccc(NC(=O)c4cccc(F)c4)cc3C(=O)N2C)O1
25.2[16.7 µM] | -6.2 | O=C(C[C@@H]1C[C@H]2c3cc(NC(=O)CC4CC4)ccc3O[C@H]2[C@@H](CO)O1)NCc1ccccc1
6.2[16.7 µM] | -5.7 | COc1cccc(NC(=O)N[C@@H]2C=C[C@@H](CC(=O)N3CCCCC3)O[C@H]2CO)c1
-5.7[16.7 µM] | -3.1 | CC(C)NC(=O)N(C)C[C@H]1Oc2ccc(NS(C)(=O)=O)cc2C(=O)N([C@H](C)CO)C[C@H]1C
-2.9[16.7 µM] | -3.0 | C[C@@H](NC(=O)C[C@@H]1C[C@H]2c3cc(NC(=O)CN(C)C)ccc3O[C@H]2[C@H](CO)O1)c1ccccc1
27.5[16.7 µM] | -6.8 | COc1ccc(S(=O)(=O)N(C)C[C@@H]2Oc3ccc(NC(=O)Nc4ccc(C(F)(F)F)cc4)cc3C(=O)N([C@H](C)CO)C[C@@H]2C)cc1
31.3[16.7 µM] | 26.9 | CCCC#Cc1ccc2c(c1)O[C@H](CN(C)Cc1ccncc1)[C@@H](C)CN([C@@H](C)CO)S2(=O)=O
-17.6[16.7 µM] | 5.8 | Cc1ccc(S(=O)(=O)Nc2ccc3c(c2)C(=O)N([C@@H](C)CO)C[C@@H](C)[C@@H](CN(C)S(=O)(=O)c2c(C)noc2C)O3)cc1
-10.6[16.7 µM] | -1.0 | C[C@H](CO)N1C[C@H](C)[C@@H](CN(C)C(=O)Nc2ccc3c(c2)OCO3)Oc2ccc(NS(=O)(=O)c3cccs3)cc2CC1=O
13.9[16.7 µM] | -5.7 | COc1ccc(CNC(=O)C[C@@H]2CC[C@@H](NC(=O)c3cccc(F)c3)[C@H](CO)O2)cc1
4.9[16.7 µM] | -7.1 | C[C@@H]1CN([C@H](C)CO)C(=O)c2cccc(NC(=O)NC3CCCCC3)c2O[C@@H]1CN(C)Cc1ccncc1
-82.6[16.7 µM] | 8.5 | Cc1ccc(S(=O)(=O)N(C)C[C@H]2OCCCC[C@H](C)Oc3ccc(NC(=O)CCC(F)(F)F)cc3C(=O)N([C@H](C)CO)C[C@@H]2C)cc1
-3.9[16.7 µM] | -7.0 | C[C@@H]1CN([C@@H](C)CO)C(=O)c2cc(NS(=O)(=O)c3ccc(F)cc3)ccc2O[C@@H](C)CCCCO[C@H]1CN(C)Cc1ccncc1
16.3[16.7 µM] | 5.9 | COc1ccc(S(=O)(=O)Nc2ccc3c(c2)CC(=O)N([C@@H](C)CO)C[C@H](C)[C@@H](CN(C)CC2CCCCC2)O3)cc1
-16.5[16.7 µM] | -6.0 | C[C@@H]1CN([C@@H](C)CO)C(=O)c2cc(-c3ccc(C#N)cc3)cnc2O[C@@H]1CN(C)Cc1ccncc1
3.6[16.7 µM] | -0.5 | Cc1noc(C)c1S(=O)(=O)Nc1cccc2c1O[C@H](CN(C)CC1CC1)[C@H](C)CN([C@H](C)CO)C2=O
6.2[16.7 µM] | 0.9 | CC(C)C#Cc1ccc2c(c1)O[C@H](CN(C)CC1CCOCC1)[C@H](C)CN([C@@H](C)CO)S2(=O)=O
2.8[16.7 µM] | -7.8 | C[C@@H]1CN([C@@H](C)CO)S(=O)(=O)c2ccc(-c3ccc(F)cc3)cc2O[C@H]1CN(C)C
-6.4[16.7 µM] | -6.5 | C[C@@H]1CN([C@H](C)CO)S(=O)(=O)c2ccc(C3=CCCC3)cc2O[C@@H]1CN(C)C(=O)c1ccccn1
-24.9[16.7 µM] | -1.1 | C[C@H](CO)N1C[C@H](C)[C@@H](CN(C)C(=O)c2ccccn2)Oc2cc(C#Cc3ccccc3)ccc2S1(=O)=O

# Screens: PubChem BioAssay, Broad Institute
